# CtBP-E1A inh – CtBP/E1A binding inhibition; AlphaScreen GST-E1A/His-CtBP binding, 1536-well; hits give low values; control for the full effect not named in the record; activity change, % (concentration not given with the values); 340,000 tested, 0.49% active; in the data active means activity change below about -65%; inconclusive means about -30% to -65%; inactive means above about -30%; note: % is set by controls: 0 for no effect and ±100 for the full control effect
#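 GST-E1A and His-tagged CtBP (125 nM each as 5X stock) were preincubated with pin-transferred compound for 2 h at 37 °C in the dark, then glutathione donor and nickel acceptor beads were added for 1 h before AlphaScreen reading.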
# TRPV1 potentiator – human TRPV1 potentiation; Q8NER1; TRPV1-expressing cells, Fluo-8 calcium influx, capsaicin EC20 potentiation; host cell line not named in the record; control for the full effect not named in the record; potentiation, % at 8.33 µM; 320,000 tested, 0.02% active; active means potentiation above 80%; inconclusive means 30% to 80%; inactive means below 30%; note: 0% is about no effect
#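 Fluo-8 calcium influx in TRPV1-expressing cells, kinetic read (ex 480/em 520 nm). Compound added and read 3 min for agonist activity, followed by capsaicin at EC20 final and 2 min further read for enhancement.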
# D2 PAM – human D2 receptor positive allosteric modulation; DiscoveRx D2 beta-arrestin cells, luminescence, 90 min; 100% = 57 uM dopamine signal; potentiation, % (no concentration beside the values); 360,000 tested, 0.23% active; AID 624464; active = potentiation of 50% or more; inconclusive = 30% to 50%; inactive = 30% or less;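 note: compound concentration not given in the record; tested on top of an EC20 dose of dopamine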
# Target sequence (P14416 whole entry, looked up): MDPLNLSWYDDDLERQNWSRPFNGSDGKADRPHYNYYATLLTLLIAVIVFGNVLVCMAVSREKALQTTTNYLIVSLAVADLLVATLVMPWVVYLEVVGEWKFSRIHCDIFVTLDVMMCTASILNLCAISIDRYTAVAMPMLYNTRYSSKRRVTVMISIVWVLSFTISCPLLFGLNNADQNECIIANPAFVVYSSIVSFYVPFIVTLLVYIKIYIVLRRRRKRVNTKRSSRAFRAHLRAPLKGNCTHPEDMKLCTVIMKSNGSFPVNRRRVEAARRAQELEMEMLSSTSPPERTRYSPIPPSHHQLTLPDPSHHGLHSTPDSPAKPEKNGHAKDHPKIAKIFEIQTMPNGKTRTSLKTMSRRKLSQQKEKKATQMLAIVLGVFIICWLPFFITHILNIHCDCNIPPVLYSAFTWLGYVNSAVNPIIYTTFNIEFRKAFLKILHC
#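 PathHunter D2 cells, attached overnight at 37 deg C, received compound in DMSO plus dopamine at EC20 (50 nM final) for 90 min at 37 deg C. Beta-arrestin recruitment was read as luminescence after 1 h with detection reagent at ambient temperature.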
# D2 agonist – activates the human D2 dopamine receptor | activation, % (no concentration beside the values) | 360,000 tested, 0.084% active | AID 624465 | DiscoveRx PathHunter D2 beta-arrestin, luminescence, 90 min; 100% = 57 uM dopamine signal | P14416; in the data active = activation above about 40%; inconclusive = about 15% to 40%; inactive = below about 15%; note: compound concentration not given in the record; the text of the record calls up to 30% inactive
#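 Agonist mode: compounds alone added to overnight-plated D2 PathHunter cells for 90 min at 37 C, with 57 uM final dopamine (EC100) defining full response. Beta-arrestin recruitment detected by chemiluminescent reagent, read after 1 h at ambient temperature.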
# Sfp PPTase inh – blocks B. subtilis Sfp PPTase activity; 310,000 tested, 3.5% active; Q9F4F7; Biochemical Sfp PPTase activity, qHTS; Potency, µM, for inactives: max response, negative = inhibition, hits mostly inhibitors; active = well fitted inhibition curve with a large enough effect; inconclusive = small, poorly fitted or top-dose-only effect, or another doubt; inactive = no such curve, though single readings can be large or run the other way;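 note: the enzyme is Sfp with the accession as filed and its product quenches rhodamine fluorescence; potency is the fitted concentration of half-maximal effect; 0% = enzyme reaction without inhibitor and -100% = no enzyme wells; top concentration of the series not given in the record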
#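 Fluorescence-quenching assay: 15 nM Sfp-PPTase preincubated 15 min at room temperature with compound, then 5 uM rhodamine-CoA and 12.5 uM BHQ-2-labelled YbbR peptide added. Fluorescence (ex 525/em 598 nm) read at start and after 30 min; difference gives rate.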
# PINK1 expr mod – changes PINK1 expression; AID 624263; 410,000 tested, 0.2% active; PINK1 immunofluorescence, high-content cytometry, 24 h; Potency, µM (highest dose often 76.6 µM), inactives show at the top dose activation (PINK1 increase), usual class: activators; active = well fitted activation curve with a large enough effect; inconclusive = small, poorly fitted or top-dose-only effect; inactive = flat fitted curve, though single readings scatter; cell line not stated here;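 note: potency is the fitted concentration of half-maximal effect; % of control where 0% means no effect; nearly all actives have a fitted effect of over 65% in size; a mitochondrial uncoupler was the plate control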
#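 Fluorescence from anti-PINK1 antibody, together with nuclear and cell stains, was scanned on a laser-scanning cytometer. Before staining, stable-line cells were incubated 24 hours with compounds at 5 concentrations; primary antibody 12 h at 10 degrees C.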
# Six1-Eya2 inh – Six1/Eya2 interaction inhibition; AlphaScreen GST-Six1/His-Eya2 binding, biochemical; hits give low values; control for the full effect not named in the record; Q15475+O00167; activity change, % (no concentration beside the values); 360,000 tested, 0.56% active; in the data active = activity change below about -65%; inconclusive = about -30% to -65%; inactive = above about -30%; note: % is set by controls: 0 for no effect and ±100 for the full control effect; compound concentration not given in the record
#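 GST-Six1 + His-Eya2 (5X stock: 250/500 nM); Tris pH 8.0, 300 mM NaCl, 0.05% BSA, 0.02% Tween 20; GSH donor/Ni acceptor beads; 1 h 37 °C dark; AlphaScreen readout.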
# * = called active by the depositor; ? = inconclusive; . = no result given; & = joins results of further samples; [ ] = dose if it differs, or a comment.
compound	CtBP-E1A inh	TRPV1 potentiator	D2 PAM	D2 agonist	Sfp PPTase inh	PINK1 expr mod	Six1-Eya2 inh
COC(=O)C1=C(C)N(Cc2ccccc2)C(=O)N[C@H]1c1cccc(C(F)(F)F)c1	-4	-30	-5	0.4	12%&15%	-0.2%	-8
CC(C)(C)OC(=O)NCCCC[C@H](NC(=O)c1[nH]cnc1C(=O)Nc1ccc(CNC(=O)OC(C)(C)C)cc1)C(=O)OC(C)(C)C	-9	28	?	?	23%	0.6%	-1
COc1cccc(N(CC(=O)NCc2cccnc2)S(C)(=O)=O)c1	-1	13	8	-2.9	2%	0.4%	9
CSc1ccc(/C=C(\C(=O)O)c2ccc(S(=O)(=O)N3CCCCC3)s2)cc1	.	5	-8	-3.2	27%	2.7%	8
COc1ccc2c(c1)OC[C@H]1[C@H]2N2C(=O)CN(C)C(=O)[C@@]2(C)[C@H]1c1ccccc1	3	-4	-5	0.3	.	2.1%	-5
COCCNC(=S)N(CCc1c(C)[nH]c2ccccc12)Cc1cccnc1	3	7	-8	1.5	0%	2.1%	0
Cc1ccc2nc(SCC(=O)NC3CCS(=O)(=O)C3)[nH]c2c1 (stereo not given)	.	.	0	-1.6	.	3.2%	6
COc1ccc(N=C2SC(C(=O)Nc3ccc(C(=O)O)cc3)CC(=O)N2Cc2cccs2)cc1 (stereo not given)	-3	13	0	-1.7	4%	1.6%	6
O=C(Nc1ccc(NC(=S)NC(=O)c2cccs2)cc1)c1ccco1	-4	3	-5	-2.0	-26%	5.6%	-12
COc1cc(-c2cc3nc(NCc4ccco4)ccn3n2)cc(OC)c1OC	-16	.	-11	5.6	.	9.1%	-23
CCOC(=O)c1c(C)[nH]c(C)c1S(=O)(=O)N(C)CC(=O)Nc1ccc(C)cn1	2	1	-3	2.1	13%	0.1%	-2
O=C(CNC(=O)c1ccccc1Br)NCCSc1ccc(Br)cc1	-1	-2	-19	-6.8	.	1.4%	-6
COc1ccc(-c2noc(N3CCCC(C(=O)Nc4cc(F)ccc4F)C3)n2)cc1 (stereo not given)	-1	-22	2	1.5	?	5.0%	0
COc1ccc(OC)c(C(=O)COC(=O)c2[nH]c(C)c(C(C)=O)c2C)c1	-3	2	9	3.4	.	10%	-1
O=C1CC(C(=O)Nc2ccccc2)C2(CCCCC2)O1 (stereo not given)	1	-7	-7	-2.8	6%	-0.1%	-3
CS(=O)(=O)N(Cc1ccccc1)c1ccc(C(=O)NCc2cccnc2)cc1	2	0	-2	0.8	14%	0.3%	7
O=C1/C(=C\c2ccsc2)NC(=S)N1c1ccccc1	-1	-3	-4	-5.2	5%	0.7%	-4
CSCCC(NC(=O)c1ccccc1Br)C(=O)N1CCCC(C(F)(F)F)C1 (stereo not given)	5	3	-25	-0.6	13%	3.6%	0
COC(=O)C(CC(=O)c1ccc(Cl)cc1)c1ccc(C)cc1 (stereo not given)	27	3	-24	-2.4	-4%	5.1%	23
COc1ccc(-n2c(C)cc(C(=O)CSc3ccc(NC(C)=O)cc3)c2C)cc1	-14	2	0	2.6	-20%	-0.2%	-18
CCC(=O)Nc1nnc(CSCc2ccccc2)s1	-15	-12	-3	-1.3	1%	0.3%	3
Cc1cc2c(cc1S(=O)(=O)N1CCN(c3cccc(C)c3C)CC1)OCC(=O)N2	-13	-19	1	1.0	-6%	2.8%	-8
C(#CCN1CCC(Cc2ccccc2)CC1)COCCOCc1ccccc1	-6	-2	-28	-2.6	-14%	7.6%	12
COc1ccc(C(CNC(=O)c2cccc(S(=O)(=O)N3CCCc4ccccc43)c2)N(C)C)cc1 (stereo not given)	-14	.	-28	-2.2	.	2.0%	-2
S=c1[nH]nc(-c2ccco2)n1/N=C/c1cccs1	13	-3	-17	0.3	-25%	-1.2%	0

compound	CtBP-E1A inh	TRPV1 potentiator	D2 PAM	D2 agonist	Sfp PPTase inh	PINK1 expr mod	Six1-Eya2 inh
COc1ccccc1NC(=O)Cc1c(F)cccc1Cl	6	6	-14	-4.9	18%	1.6%	14
O=C(NC1CCCCC1)C(c1ccnc2ccccc12)N1CCOCC1 (stereo not given)	0	.	-4	-4.7	.	-0.2%	7
Nc1nc(-c2cccs2)c(-c2cccs2)s1	-9	15	-14	-0.1	5%	0.0%	-7
CN(C(=O)COC(=O)/C=C/c1ccc(C(F)(F)F)cc1)c1c(N)n(Cc2ccccc2)c(=O)[nH]c1=O	-9	5	-33	-8.8	.	5.8%	-2
Cc1cn([C@H](C(=O)NCCCCCCCCCCC(=O)N2CCNCC2)[C@@H](C)O)nn1	-5	8	-7	-3.3	.	1.4%	-10
CCN(c1cccc(C(F)(F)F)c1)S(=O)(=O)c1ccc2c(c1)CCN2C(=O)C1CC1	6	-8	-12	0.7	0%	1.7%	0
COc1cc(C(C)=O)ccc1OC(=O)N1CCOCC1	-7	.	-15	-1.9	.	0.1%	9
CC(C)(C)c1nnc(NC(=O)CN2C(=O)C3C4C=CC(C4)C3C2=O)s1 (stereo not given)	5	11	-8	-2.3	10%	0.9%	2
Cc1cccc(OCC(=O)NCC(=O)N/N=C/c2c(C)[nH]c3ccccc23)c1	-1	-2	-6	2.1	14%	0.0%	-6
CC(C)c1ccc(NC(=S)NCc2ccc3c(c2)OCO3)cc1	-13	-9	-10	-3.2	4%	4.0%	-15
CN(C)CCN1C(=O)c2oc3ccc(F)cc3c(=O)c2C1c1ccncc1 (stereo not given)	1	20	-7	-5.2	2%	0.1%	2
Cc1ccc(OCC(O)CN2CCOCC2)cc1 (stereo not given)	.	-15	6	-0.6	11%	1.3%	2
O=c1cc2c(nn1Cc1c(Cl)cccc1Cl)-c1ccccc1CC2	-2	-17	-12	-4.2	-24%	-0.3%	-3
NCCN=C1NS(=O)(=O)c2ccccc21	-3	-13	-10	-1.7	1%	-0.5%[38.3 µM]	2
NC(=O)CS(=O)(=O)c1nc2ccccc2n1CC(=O)N1CCCCC1	5	-12	-6	-0.2	16%	9.6%[38.3 µM]	2
CCOCC(O)CNC(=O)c1ccc2nc(Cc3ccc(OC)c(OC)c3)oc2c1 (stereo not given)	6	17	1	-2.0	0%	2.3%	8
CC(C)CNS(=O)(=O)c1ccc(CCC(=O)NCCc2ccccc2)cc1	5	-12	-2	6.0	8%	3.6%	1
COC(=O)c1c(C(=O)OC)c2n(c1C)CCS2	7	-19	-5	-1.7	17%	-0.3%	3
O=C(Oc1ccc(-n2cnnn2)cc1)c1ccco1	4	1	0	-1.5	3%	-1.3%	-6
OCCN1CCN(Cc2cc(Cl)c3cccnc3c2O)CC1	-95*	7	-24	0.5	10%	-5.0%[38.3 µM]	-90*
COC(=O)c1ccccc1NC(=O)C1CCCN(S(C)(=O)=O)C1 (stereo not given)	8	1	-3	-3.1	11%	-0.8%[38.3 µM]	-1
O=C(NCCC(=O)N1CCN(c2ncccn2)CC1)c1ccccc1Cl	7	-10	-1	-2.2	9%	0.0%	4
N#Cc1cc(N2CCCCC2)c([N+](=O)[O-])cc1C#N	-21	25	2	0.1	-11%	0.9%	-2
Cc1cc(-n2nc(C)cc2C)nc(NS(=O)(=O)c2ccccc2)n1	-2	24	-4	-3.7	-1%	2.7%	-6
Nn1c(SCC(=O)N2CCCC2)nnc1-c1cccs1	2	.	-10	-1.6	.	3.1%	8

compound	CtBP-E1A inh	TRPV1 potentiator	D2 PAM	D2 agonist	Sfp PPTase inh	PINK1 expr mod	Six1-Eya2 inh
CC(=O)Nc1ccc(NC(=O)CSc2ccc(-c3cccs3)nn2)cc1	-1	?	0	0.4	-17%	3.2%	0
CC1=CC2=NC(=O)/C(=C\c3cccn3CCOc3cc(C)ccc3C)C(=N)N2O1	?	3	-10	-4.2	?	2.9%	-18
O=C(Cc1ccc(Br)cc1)N/N=C/c1ccc(-c2cccc(C(=O)O)c2)o1	-10	-2	2	0.1	-1%	-2.4%	-12
COC(=O)c1ccc2c(=O)n(CCO)c(=S)[nH]c2c1	4	5	5	-1.2	10%	-2.4%[38.3 µM]	1
Cc1cc(C(F)(F)F)nn1CC(=O)NNC(=S)NCC(C)C	4	-9	-13	-3.9	15%	7.9%[38.3 µM]	3
O=[N+]([O-])c1ccc(CN2CC(N3CCCC3)CS2(=O)=O)cc1 (stereo not given)	4	.	.	-1.7	.	-0.5%	-3
Cc1[nH]c2ccccc2c1Cc1nnc(SCCC#N)o1	-1	21	1	-1.3	32%[activator]	2.0%	-2
COC(=O)C(Cc1ccc(O)cc1)NC(=O)C1CCN(S(=O)(=O)c2ccc(C)cc2)CC1 (stereo not given)	-11	8	-3	-1.7	22%	-0.1%	13
CCCCNS(=O)(=O)c1ccc2c(c1)oc(=O)n2CC(=O)OCC	4	-3	-6	-0.9	11%	0.7%	1
CCc1ccccc1OCC(=O)Nc1ccc(C)c(S(=O)(=O)N2CCCCCC2)c1	4	1	-3	-5.8	.	-0.1%	10
COc1ccc(S(=O)(=O)NCCCCCC(=O)NCCCN2CCOCC2)cc1	2	-17	-15	-2.5	27%	0.9%[38.3 µM]	2
CCCCOCCCNC1=NCCCCC1	7	2	-10	-2.8	-3%	2.2%	-2
O=C(NCCN1CCOCC1)c1ccccc1Cl	5	3	0	-0.8	23%	-0.6%	4
O=C(NCCC1=CCCCC1)C1CCCN(S(=O)(=O)c2cccc3cccnc23)C1 (stereo not given)	0	.	1	11	13%	-0.1%	23
CCOC(=O)C(Cc1ccccc1)NC(=O)Cn1nnc(-c2ccccc2)n1 (stereo not given)	4	12	6	2.2	10%	-0.8%	7
CC(C)(C)NC[C@@H](O)COc1cccc2c1CCCC2=O	-1	0	1	-4.6	.	1.7%	6
CC1=CC(C)(C)N(C(=O)CSc2nnc(C)s2)c2ccc(C)cc21	8	-9	-7	0.6	8%	.	-1
COc1ccc(N=c2oc3cc(O)ccc3cc2C(=O)NCC2CCCO2)cc1 (stereo not given)	-1	0	-14	-1.5	21%	?	-3

# Single values from above.
# D2 agonist with `COc1ccc(N=c2oc3cc(O)ccc3cc2C(=O)NCC2CCCO2)cc1` (stereo not given) = -1.5
# Six1-Eya2 inh with `Cc1ccc(OCC(O)CN2CCOCC2)cc1` (stereo not given) = 2
# TRPV1 potentiator with `Cc1cc(-n2nc(C)cc2C)nc(NS(=O)(=O)c2ccccc2)n1` = 24

# Compound activity from PubChem BioAssay.
